# Source: PubChem BioAssay (several laboratories)
# Sa ugtP lethal: kills S. aureus RN4220 lacking UgtP | S. aureus RN4220 ugtP deletion, OD600 growth, 16 h; some inactives read as strong as hits | growth inhibition, % (test concentration not listed) | hit rate 0.54% among 330,000 | AID 1259309;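 active = z-score under -3 and OD600 up to 0.15 on both plates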;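 also: plate controls were untreated wells for no effect and antibiotic for full effect; wells of about 80 µL received 100 nL stock; the first replicate is given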
# PrP 5UTR inh: inhibition of PrP 5' UTR reporter expression | hit rate 0.35% among 340,000 | cell-based PrP 5' UTR mRNA reporter, plate reader | inhibition, % (concentration not given with the values);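 active = every replicate at 50% or more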;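 also: 0 = median of the neutral control wells; tested in H4 reporter cells; numbers are from one replicate; inactives centre near -14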
# Mtb hypoxia rep: reduces hypoxia-regulated biosensor signal in M. tuberculosis; M. tuberculosis hypoxia-regulated fluorescent reporter, fluorescence; fluorescence inhibition, % (concentration not given with the values); hit rate 0.1% among 300,000;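 active = 35 to 45% if threefold the growth effect, above 45% if 1.5-fold the growth effect; inactive = the rest, general growth blockers included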;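 also: wells of about 50 µL received 100 nL stock; 0% = vehicle wells and 100% = reference inhibitor wells; whole bacteria with a GFP reporter of the hypoxia response; strong numbers were not always called active; many hits fall short of the cut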
# Autofluor counter: counter-screen for toxin protease inhibitors: compound fluorescence. compound autofluorescence counterscreen, microsphere flow cytometry; stronger effect = higher value. fluorescence intensity (test concentration not listed). hit rate 3.1% among 360,000. AID 624483;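 active = at least 3 SD above the mean of all compounds, about 16000 in these data; inconclusive = too few beads counted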;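 also: 100 nL of 1 mM stock went into each well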
# BJeLR lethal: BJeLR cell viability loss. BJeLR (HRASV12) viability, CellTiter-Glo ATP luminescence, 48 h; reference of the scale not given here. inhibition, % (no concentration beside the values). hit rate 0.17% among 300,000;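 active = replicate mean above 50%; inconclusive = above 50% but judged a plate artefact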;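 also: 50 nL library stock added to about 25 µL; numbers are from one replicate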
# Sa RN4220 lethal: S. aureus RN4220 growth inhibition; OD600, 16 h; inhibition, % (concentration not given with the values); hit rate 0.33% among 330,000;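 active = z-score of -3 or lower and OD600 up to 0.18 on both plates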;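 also: plate controls were untreated cells for no effect and reference antibiotic for full effect; stock transfer was 100 nL into about 80 µL; one replicate is shown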
# Mtb hypoxia rep growth: further read-out of Mtb hypoxia rep, marked with its call; growth inhibition, %; measured here: M. tuberculosis growth (absorbance);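 0% = vehicle and 100% = reference antibiotic; read after six days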
# The depositor's hits bear a star; ? = inconclusive; / = not tested or not shown; & = joins results of further samples.
no.	canonical_smiles	Sa ugtP lethal	PrP 5UTR inh	Mtb hypoxia rep	Mtb hypoxia rep growth	Autofluor counter	BJeLR lethal	Sa RN4220 lethal
1	Cc1ccc(OCC(=O)N(C)CC(=O)N(CC(C)C)c2c(N)n(CC(C)C)c(=O)[nH]c2=O)c(C)c1	0	1	-1	5	?	4	0.6
2	CC(=O)N1c2ccc(C)cc2Sc2c1ccc1ccccc21	70	-51	19	6	4147	/	4.1
3	COc1ccc(NC(C)=O)cc1S(=O)(=O)N1CCN(Cc2cccs2)CC1	-4	4	8	4	/	/	-2.4
4	O=C1c2ccccc2OCOc2ccccc21	15	-21	2	-2	6729	-6	5.9
5	O=[N+]([O-])c1ccc2nc(-c3ccccc3[N+](=O)[O-])[nH]c2c1	1	-20	7	3	2512	-3	2.4
6	O=C(NN=Cc1cc(Br)ccc1O)c1ccccc1Cl	10	/	3	2	/	/	6.6
7	COc1ccc(-c2csc3ncnc(N4CCN(S(=O)(=O)c5ccccc5C#N)CC4)c23)cc1	96*	-31	1	-5	5416	-21	97*
8	CNC(=O)NC(=O)C(C)OC(=O)c1oc2ccccc2c1CSc1ccc(Cl)cc1 (stereo not given)	-1	1	15	1	2041	-1	0.4
9	CCN(CC)S(=O)(=O)c1ccc(N2CCCC2)c(NC(=O)c2ccc([N+](=O)[O-])o2)c1	11	-31	-2	8	2905	/	5.5
10	O=C(Oc1c(CN2CCOCC2)cc(Cl)c2cccnc12)c1cccs1	7	14	-6	1	3987	15	6.8
11	Cc1cc(C)n(-c2nc(NCCCN(C)C)c3c4c(sc3n2)COC(C)(C)C4)n1	-1	/	-1	-12	?	0	0.0
12	Cc1cccc(NC(=O)CS(=O)(=O)c2cn(C)c3ccccc23)c1C	-6	18	1	4	9829	-9	0.3
13	O=C(OCc1ccccn1)c1ccc(COc2ccc3ccccc3c2)o1	10	-51	4	13	4863	8	2.6
14	Cn1c(C(O)C(O)c2ccccc2)nc2ccccc21 (stereo not given)	1	-18	-1	-2	2458	-1	5.1
15	COCCN(C(=O)c1ccc2ccccc2c1)c1c(N)n(Cc2ccccc2)c(=O)[nH]c1=O	0	4	7	10	4214	2	3.0
16	O=S(=O)(c1ccc(C2=CSC3=NCCN23)cc1)N1CCOCC1	2	-21	/	/	4495	5	-0.7
17	CC(C)(C)NC(=O)C(c1ccc(-c2ccccc2)cc1)N(C[C@H]1CC[C@@H]([C@@H]2CC[C@H](CO)O2)O1)C(=O)c1ccc(C(C)(C)C)cc1 (stereo not given in full)	-26	-8	0	0	3732	/	29
18	COC(=O)C1CC2CCC(O)CC2N1Cc1ccc(C(F)(F)F)cc1 (stereo not given)	-2&-3	/	2&-2	-3&-16	/	/	7.0&-0.6
19	NC(=NCc1ccccc1)c1cccc([N+](=O)[O-])c1	0	-31	9	8	4037	1	2.2
20	COC(=O)c1ccc(NC(=S)Nc2ccc3ccccc3c2)cc1	-15	-31	4	4	3186	4	-5.0
21	CN(C)c1ccc(C(=S)N2CCCCC2)cc1Br	-1	-47	11	-1	4100	5	3.2
22	N#Cc1ccc(Oc2nc(C#N)cc(-c3ccccc3)n2)cc1	-1	-8	-3	-2	1964	5	5.8
23	CCCCn1c(N)c(N(Cc2ccccc2)C(=O)COc2ccccc2F)c(=O)[nH]c1=O	7	-13	3	3	5943	/	2.9
24	O=C(NCc1ccc2c(c1)OCO2)C1CCN(S(=O)(=O)c2cccc3nsnc23)CC1	2	-10	8	3	3426	1	0.8
25	CCOC(=O)c1ccc(Cl)c(NC(=O)c2cccnc2)c1	8	/	4	4	/	4	-0.8
26	O=C1OCC(CO)(CO)N=C1NNc1ccccc1Cl	-7	-21	-15	-1	8547	-15	-3.9
27	Cc1cc(NC(=O)Nc2ccccc2)n(C(C)(C)C)n1	0	-10	-3	-2	3818	6	0.1
28	Cc1cccnc1NC(=O)c1ccc2c(c1)OCO2	3	-11	13	3	?	-5	1.4
29	COCCn1c(SCC(=O)N2CC(C)OC(C)C2)nc2c([nH]c3ccccc32)c1=O (stereo not given)	1	-1	-2	0	6010	-1	3.0
30	O=C(NC1CCS(=O)(=O)C1)c1ccccc1C(=O)c1ccccc1 (stereo not given)	4	-20	-2	7	8612	/	2.6
31	COC(=O)CN(CCc1ccccc1)S(=O)(=O)c1ccc(OC)c(OC)c1	-2	-6	2	2	4247	-4	2.8
32	Cc1ccccc1S(=O)(=O)NCc1cccnc1	5	1	0	-3	2402	/	3.1
33	Cc1[nH]c(=O)[nH]c(=O)c1S(=O)(=O)Nc1ccc(F)cc1F	3	-20	-6	1	3883	7	3.4
34	Cc1sc2nc(N)sc2c1C	17	-8	/	/	4572	/	1.9
35	NC(=O)COC(=O)c1cccc(S(=O)(=O)N2CCN(c3ccc(F)cc3)CC2)c1	6	-30	8	-1	2540	-2	7.2
36	COc1ccc(C(=O)OCC(=O)NC(=O)Nc2ccccc2F)c(OC)c1	-4	-6	-8	-6	/	/	-0.4

# By substructure, the compounds so far with a nitro group on carbon (three)
no.	canonical_smiles	Sa ugtP lethal	PrP 5UTR inh	Mtb hypoxia rep	Mtb hypoxia rep growth	Autofluor counter	BJeLR lethal	Sa RN4220 lethal
5	O=[N+]([O-])c1ccc2nc(-c3ccccc3[N+](=O)[O-])[nH]c2c1	1	-20	7	3	2512	-3	2.4
9	CCN(CC)S(=O)(=O)c1ccc(N2CCCC2)c(NC(=O)c2ccc([N+](=O)[O-])o2)c1	11	-31	-2	8	2905	/	5.5
19	NC(=NCc1ccccc1)c1cccc([N+](=O)[O-])c1	0	-31	9	8	4037	1	2.2

# New compounds follow.
no.	canonical_smiles	Sa ugtP lethal	PrP 5UTR inh	Mtb hypoxia rep	Mtb hypoxia rep growth	Autofluor counter	BJeLR lethal	Sa RN4220 lethal
37	COc1ccccc1C(=O)NCCC(=O)NCc1cccs1	0	-23	9	1	?	-9	1.7
38	CC/C=C(/NC(C)=O)c1ccccc1	7	-17	-4	-1	4032	/	8.3
39	CC(=O)c1ccc(Oc2cc(-c3ccccc3)nc(-c3ccccc3)n2)cc1	9	-11	5	6	10105	-2	-4.0
40	Cc1ccc(C(=O)OCc2cc(=O)n3ccsc3n2)s1	-5	1	-14	1	3709	/	2.5
41	Cc1[nH]cnc1CSCc1ccc(Cl)cc1	7	-25	4	4	9095	7	5.7
42	CC1Cc2ccccc2N1CC(=O)NC(=O)NCc1ccco1 (stereo not given)	0	-20	6	10	17928*	0	1.6
43	CC(NC(=O)C(C)N1CCN(S(=O)(=O)c2ccccc2)CC1)c1ccccc1 (stereo not given)	4	-22	10	15	3742	/	2.9
44	COc1ccc(CNC(=O)c2n[nH]c3ccccc23)cc1OC	5	1	5	9	3954	2	2.3
45	O=C(NCC(=O)N1CCCCCCC1)c1ccco1	2	-41	7	14	4072	/	1.8
46	O=C(CN(Cc1ccco1)C(=O)c1cc(=O)[nH]c2ccccc12)Nc1ccccc1C(F)(F)F	1	-16	7	-6	16502*	-14	1.3
47	CCC(C)(C)NC(=O)CN(C(=O)C(=O)Nc1ccc2c(c1)OCCO2)N1CCOCC1	6	-81	-4	1	6213	-11	-2.0
48	Cc1ccc2c(c1)C(c1ccncc1)=NNC(c1cccnc1)=N2	10	-26	11	19	4441	2	-0.6
49	N#C/C(=C\C=C\c1ccccc1)C(=O)NCc1ccco1	7	-21	-5	2	4026	-6	-1.7
50	O=C(NCCc1ccccc1)C1CCCN1C(=O)Nc1cccc(Cl)c1 (stereo not given)	5	-45	3	0	4087	-1	1.7
51	Cc1ccc(C(=O)c2cc([N+](=O)[O-])ccc2N2CCN(C)CC2)cc1	2	-24	/	/	6167	-1	0.0
52	CC(C)CC1NC(=O)N(CC(=O)N(C)C2CCCCC2)C1=O (stereo not given)	3	-18	8	1	3319	/	3.2
53	O=C(NN=CCCc1ccccc1)c1ccc(CN2c3cccc4cccc(c34)S2(=O)=O)cc1	4	/	5	-2	/	/	2.2
54	CS(=O)(=O)N(CC(=O)NCCSCc1c(F)cccc1Cl)c1cccc([N+](=O)[O-])c1	16	0	10	5	3363	-15	5.9
55	CN(Cc1cn(C)nc1-c1ccc(Oc2ccccc2)cc1)CC1COCCO1 (stereo not given)	3	-32	-6	-6	4466	8	5.1
56	CCC1=Nc2cc(C(=O)NCCCN3CCOCC3)ccc2Sc2ccccc21	3	-12	18	10	6052	1	4.4
57	O=C(c1ccc(F)cc1)C1CCN(C(=S)Nc2ccccc2Cl)CC1	1	-15	8	3	3330	8	4.6
58	Cc1ccc(C(C)C)c(OCc2nn(CC(=O)c3ccc(OC(F)F)cc3)c3[n+]2CCCCC3)c1	95*	-18	/	/	4234	-1	100*
59	CON(c1nc(N(C)C)nc(N(C)C)n1)S(=O)(=O)c1ccccc1Cl	1	-12	0	-1	6890	1	-1.9
60	CCOC(=O)C(=O)Nc1nnc(SCc2ccc(F)cc2)s1	5	-20	18	21	2648	-4	1.1
61	O=C(NCC1OCCc2ccccc21)C1COc2ccccc2O1 (stereo not given)	17	-21	20	21	4715	2	13
62	Cc1cc(C)cc(OCC(=O)Nc2ccc(N3CCCC3)cc2)c1	0	-23	-10	6	10622	1	-1.2
63	CSc1ncccc1C(=O)Nc1cccc(C)n1	1	2	5	-1	4570	-9	2.2
64	COCC(=O)N1CCC(Oc2ccc(C(=O)N(C)Cc3nccs3)cc2)CC1	0	-29	2	-5	5189	-1	0.2
65	O=C(CCC(=O)NC1CCCCC1)NCc1ccc(F)cc1	8	12	21	15	3471	-10	1.6
66	COCCN1C(=O)C(O)=C(C(C)=O)C1c1ccc(OC)c(OC)c1 (stereo not given)	16	-11	5	5	2451	1	16
67	CCCc1cc(C(=O)NC(C)C2CCCO2)cs1 (stereo not given)	2	-17	/	/	5881	1	0.2
68	COc1ccc(/C=C2\C(=O)NCC(=O)N2C)cc1	2	/	8	-6	6212	-5	4.1
69	COC(=O)c1cc(C(=O)OC)cc(N2C(=O)CC(N3CCN(c4ccccc4)CC3)C2=O)c1 (stereo not given)	-4	-17	/	/	2274	13	1.1
70	O=C(O)c1ccccc1C(=O)NCCc1c(C(=O)O)[nH]c2ccc(F)cc12	1	-10	18	13	11502	-7	1.2
71	COC(=O)C1=COC(C)C2CN3CC[C@]4(C(=O)Nc5ccccc54)C3CC12 (stereo not given in full)	-2	/	3	13	/	/	5.2
72	C/C(=N/NC(=O)c1ccc(Br)o1)C(C)C	/	-10	/	/	7317	-5	/
73	O=C(N/N=C/c1ccc(OC(=O)c2ccc3c(c2)OCO3)cc1)c1cncc(Br)c1	/	4	/	/	7488	-2	/
74	CSc1ncc(Cl)c(C(=O)Nc2ccccc2C)n1	10	-9	14	0	3352	-7	4.7
75	CCn1c(SCC(=O)Nc2nc3ccccc3s2)nc2c(c1=O)SC(C)C2 (stereo not given)	-5	/	/	/	/	-1	-1.7
76	COCCN(C)Cc1cn(-c2ccc(F)cc2F)nc1-c1ccccc1C	5	-9	4	0	3525	0	2.7
77	COc1ccccc1CNc1cncnc1	-1	-22	1	-2	3747	-4	-2.5
78	NCCCCC1CNC(=O)C(=O)N1CCCCC1CCCCC1 (stereo not given)	-1	/	-3	4	/	/	1.8
79	CNC[C@@H]1Oc2ccc(NC(=O)Nc3ccccc3)cc2C(=O)N([C@@H](C)CO)C[C@H]1C	-6	-14	4	10	3727	/	-6.5
80	Cc1nn(-c2ccc(F)cc2)c2sc(C(=O)OC3CCOC3=O)cc12 (stereo not given)	-1	-26	/	/	3100	1	0.1
81	CCOc1ccc(OCCCCN(C)C)cc1	0	-39	13	5	2905	-4	8.4
82	CC1(C)CNC(=O)c2sc(NC(=O)c3ccccc3Cl)nc2C1	-64	-21	3	9	3817	4	11
83	Cc1nc2ccccc2c(=O)n1-c1ccccc1C(F)(F)F	10	-3	6	-4	9112	12	4.1
84	CCOc1ccc(NS(=O)(=O)c2cc(NC(=O)c3ccc(C)cc3)ccc2Cl)cc1	85*	-11	6	-3	2495	18	2.4
85	COc1ccc(NC(=O)Cn2cnc3sc(C)c(S(=O)(=O)N4CCOCC4)c3c2=O)cc1Cl	3	-11	-8	5	5484	-4	-1.4
86	O=C(C1CC(c2cccc(Br)c2)=NO1)N1CCc2ccccc2C1 (stereo not given)	5	3	1	0	?	-3	3.7
87	C=CCOc1ccccc1CNCCc1ccc(S(N)(=O)=O)cc1	-1	-30	-6	5	4911	5	-0.4
